Screening results deposited in PubChem by PCMD.
Calb biofilm kill: mixtures killing C. albicans biofilm | C. albicans biofilm persisters + clotrimazole, fluorescence viability; primary screen in compound mixtures of four per well | inhibition, % at 7.6 µM | 120,000 tested, 0.02% active | AID 1242;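 active means inhibition above 30.3% in the primary screen of four-compound pools, then above 30% when the compound was retested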;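 further: compounds exposed to preformed 24 h biofilms for 48 h; the number belongs to the whole pool; some results filed as inactive read as strong as hits; inactives centre near 12; 0% = biofilm with clotrimazole alone and 100% = kill control; retested singly at about 60 µM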
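Incubation: 24 h biofilm formation, then 48 h compound exposure, 37 °C | Material: C. albicans biofilms | Buffer or medium: RPMI/MOPS medium, pH 7.0 | Measured by: 2-h Alamar Blue fluorescence, 535/590 nm excitation/emission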
An asterisk follows results filed as active. Some of the compounds tested; count on the stated rates, not on these rows.

Start of the data: the first 7 compounds, to show the layout:
SMILES	Calb biofilm kill
Cc1nn(C(=O)c2c([N+](=O)[O-])cnn2C)c(C)c1Cl	20
Cc1ccc2c(c1)nnn2C1CCN(C(=O)C23CC4CC(CC(C4)C2)C3)CC1	16
CC(C)C(=O)NN(C(=O)C(C)C)c1nc2ccccc2s1	31
CN(CC(=O)Nc1ccc(Cl)cc1)c1ccc(S(=O)(=O)N2CCCCC2)cc1[N+](=O)[O-]	5
CCCNC(=O)c1ccc2c(c1)CCN2S(C)(=O)=O	10
Cc1ccc(CNC(=O)C2CC3Cn4c(nc5cc6ccccc6cc54)C3N2C)o1 (centres undefined)	23
Cc1cccn2c(CN3CCCN(C=O)CC3)c(C(=O)N(C)CCc3ccccc3)nc12	14

This part in full (from the top)
SMILES	Calb biofilm kill
Cc1nn(C(=O)c2c([N+](=O)[O-])cnn2C)c(C)c1Cl	20
Cc1ccc2c(c1)nnn2C1CCN(C(=O)C23CC4CC(CC(C4)C2)C3)CC1	16
CC(C)C(=O)NN(C(=O)C(C)C)c1nc2ccccc2s1	31
CN(CC(=O)Nc1ccc(Cl)cc1)c1ccc(S(=O)(=O)N2CCCCC2)cc1[N+](=O)[O-]	5
CCCNC(=O)c1ccc2c(c1)CCN2S(C)(=O)=O	10
Cc1ccc(CNC(=O)C2CC3Cn4c(nc5cc6ccccc6cc54)C3N2C)o1 (centres undefined)	23
Cc1cccn2c(CN3CCCN(C=O)CC3)c(C(=O)N(C)CCc3ccccc3)nc12	14
CCOC(=O)c1c(C=O)c2ccccc2n1CC	9
Cc1cc(C)cc(-n2cc(C(=O)O)c(=O)cc2C)c1	19
c1ccc(CCn2nnnc2C(c2cccs2)N2CCOCC2)cc1 (centres undefined)	-3
Cc1cccc(C)c1NC(=O)C1c2cccc[n+]2CC(=O)N1Cc1ccc2c(c1)OCO2 (centres undefined)	17
Cc1nc2sc(C(c3ccccc3)N3CCN(C)CC3)c(O)n2n1 (centres undefined)	6
O=C(NC(=S)Nc1ccc(NC(=O)c2ccco2)cc1)c1ccccc1	14
CCOC(=O)c1cn(Cc2ccc(C)cc2)nn1	16
Cc1ccccc1N1CCN(C(=S)c2ccc([N+](=O)[O-])cc2)CC1	11
COC(=O)c1cn(C(=O)c2ccccc2)c2ccccc12	21
O=[N+]([O-])c1ccc(COc2cccc(CNc3ccc(Br)cc3)c2)cc1	22
Cc1ccc(C2CC2c2n[nH]c(=S)n2-c2cccc(Cl)c2)cc1 (centres undefined)	9
CCOC(=O)Cc1csc(NC(=O)c2ccc(C)cc2)n1	12
COc1ccc(C(=O)NC(C(=O)NCc2ccccc2OC)C(C)C)cc1 (centres undefined)	-9
CCN(CC)c1c2c(c(C#N)c3nc4ccccc4n13)CCC2	8
COc1cc(NC(=S)Nc2ccccn2)c(OC)cc1Cl	9
CCN1C(=O)C(O)(CC(=O)c2c(C)coc2C)c2ccccc21 (centres undefined)	13
CCC(=O)NC(=S)Nc1ccc(NC(=O)c2ccco2)cc1	2
Clc1ccccc1C1=Nn2c(nnc2-c2ccco2)SC1	33
CC(=NCc1cccc(Cl)c1)c1nc(-c2ccco2)oc1O	2
COc1cc(-c2n[nH]c(=S)n2-c2cccc(C(F)(F)F)c2)cc(OC)c1OC	6
CCNc1c([N+](=O)[O-])c(=O)oc2ccccc12	8
CCOC(=O)/C(C#N)=C/N1CCOCC1	22
Cc1c(C(=O)O)cccc1-n1c(C)cc(/C=C(/C#N)C(=O)NCc2ccccc2)c1C	7
c1ccc2nc3c(nc2c1)[nH]c1ccccc13	18
O=C1CSC(=S)N1N=C1CCCCCC1	25
COC(=O)C1CC(Cl)CN1c1ncc(C(F)(F)F)cc1Cl (centres undefined)	15
COCc1ccc([C@@H]2C[C@H]3CN(Cc4cccc(Cl)c4)C(=O)[C@]34CCCN24)o1	-4
COc1cc(NC(=S)N2CCN(c3ccccn3)CC2)cc(OC)c1	18
CCC/C(O)=C1\C(=O)CC(C)(C)CC1=NCc1ccccc1	19
COC(=O)c1cc(C)sc1NC(=O)C1CC(=O)NN1Cc1ccccc1 (centres undefined)	9
Cn1nc(-c2ccc(Cl)cc2)cc1NC(=O)CSCC(=O)O	20
CCN(CC)S(=O)(=O)c1ccc(C(=O)NCC(c2ccc(OC)cc2)N2CCOCC2)cc1 (centres undefined)	-1
CCCCn1c(=N)n(CC(=O)O)c2ccccc21	0
COCCN1C(=O)CS/C1=C(/C#N)C(=O)NCc1ccco1	-1
COc1cc(/C=C(\NC(C)=O)C(=O)O)cc(OC)c1OC	7
CC1(C)CC(NC(=O)C(Cl)(Cl)Cl)CC(C)(C)N1	6
N/C(=N\O)c1ccccc1N1CCCCC1	16
O=C(NCc1ccc2c(c1)CCO2)Nc1ccccc1	20
CCOc1ncccc1C(=O)OCc1ccccc1	4
CCN1CCN(c2cc(C)c3cc(NC(=S)N4CCCC4)ccc3n2)CC1	2
Cc1cccc(OC(=O)c2ccncc2)c1C	37
NC(=S)NNC(=O)COc1ccccc1O	20
Cn1c(=O)c(S(=O)(=O)C(C)(C)C)c(O)c2ccccc21	10

Carrying on:
SMILES	Calb biofilm kill
O=C(NCCc1nnc2ccc(NCc3ccc(Cl)cc3)nn12)c1ccccc1	9
CN(C)S(=O)(=O)c1cccc(-c2nn(-c3ccccc3)cc2/C=C2\SC(=S)N(CC(=O)O)C2=O)c1	31
NC(=O)c1ccc(NC(=O)CSc2nnc(-c3ccccn3)n2N)cc1	-1
Cn1c(/C=C/N(Cc2ccccc2)c2ccccc2)c([N+](=O)[O-])c(=O)n(C)c1=O	13
O=S(=O)(Nc1ccc(Cl)cn1)c1cnc(Cl)c(Br)c1	13
COc1cc(CNC2CCCC2)c(Br)cc1OCc1ccccc1	12
COC(=O)c1c(-c2ccc(C)cc2)csc1NC(=O)C1CC=CCC1C(=O)O (centres undefined)	31
O=S(=O)(Nc1ccc(Cl)cn1)c1ccc(Cl)cc1	8
CC(C)CNC(=O)c1ccc(C2SCC(=O)N2Cc2ccccc2)cc1 (centres undefined)	-1
CCc1cccc(C)c1NC(=O)COC(=O)C(NS(=O)(=O)c1ccc(Cl)cc1)C(C)O (centres undefined)	7
Cc1ccc(-c2cccc(CN3CCN(C4CCN(C(C)C)CC4)C(CCO)C3)c2)o1 (centres undefined)	1
O=C(C1=C[C@H](c2ccc(Br)cc2)C[C@H](OCCCCO)O1)N1CCN(Cc2ccccc2)CC1	11
Cc1c(Cl)cccc1NC(=O)Cn1c(-c2ccc(F)cc2)noc1=O	5
COc1ccc(C(=O)NCC(=O)OCc2csc(-c3ccccc3)n2)cc1	15
CC(C)C(c1nnnn1Cc1ccc(F)cc1)N1CCN(C2CCCC2)CC1 (centres undefined)	20
Cc1ccc(-c2n[nH]c(=S)n2/N=C/c2ccncc2)cc1	15
CC1CCc2sc(C(=O)OCC(=O)NCc3ccc(F)cc3)cc2C1 (centres undefined)	11
CC(C)(C)c1ccc(/C=C2\SC(=O)N=C2N)cc1	17
Cc1[nH]c(=S)c(C#N)c(C)c1Cc1ccc(Cl)cc1Cl	9
Cc1ccc2oc(=O)c(/C=C(\O)CC(C)C)nc2c1	4

Three of these compounds, set out differently:
COc1ccc(C(=O)NC(C(=O)NCc2ccccc2OC)C(C)C)cc1 (centres undefined)
  Calb biofilm kill = -9
CCN(CC)c1c2c(c(C#N)c3nc4ccccc4n13)CCC2
  Calb biofilm kill = 8
COc1cc(NC(=S)Nc2ccccn2)c(OC)cc1Cl
  Calb biofilm kill = 9

Next part.
molecule	Calb biofilm kill
O=C(N/N=C/c1cc(Cl)cc(Cl)c1O)c1ccncc1	5
Cc1c(Cl)cccc1NC(=O)C(=O)NNC(=O)c1ccccc1F	10
CC(=O)C1=C(C)NC(SCc2ccc(C#N)cc2)=C(C#N)C1c1ccco1 (centres undefined)	3
CC(C)C(c1nnnn1C(C)(C)C)N1CCN(Cc2cccnc2)CC1 (centres undefined)	27
Nc1ccc(C(=O)Nc2ccc(OC(F)(F)C(F)F)c(NC(=O)c3ccc(N)cc3)c2)cc1	27
CSc1ccc(C(=O)C2CCCN(S(=O)(=O)N(C)C)C2)cc1 (centres undefined)	13
CC(C)(C)C1CCC(=NNC(=O)c2cc3c(s2)CCCC3)CC1 (centres undefined)	12
Cc1cccc(C(=O)O/N=C/c2ccc(Br)cc2)c1	10
Cc1ccc(S(=O)(=O)N2CC(O)CC2C(=O)NCc2ccc3c(c2)OCO3)cc1 (centres undefined)	-12
CC1(c2ccccc2Cl)NC(=O)N(CC(=O)Nc2ccc3c(c2)OCO3)C1=O (centres undefined)	17
CCCCC(=O)NS(=O)(=O)c1ccc(N=NN2CCCCC2)cc1	8
O=C(NC(=S)N1CCN(C/C=C/c2ccccc2)CC1)c1ccc(F)cc1	-4

Some of the entries so far, field by field:
Compound: Cc1c(C(=O)O)cccc1-n1c(C)cc(/C=C(/C#N)C(=O)NCc2ccccc2)c1C
- Calb biofilm kill: 7
Compound: c1ccc2nc3c(nc2c1)[nH]c1ccccc13
- Calb biofilm kill: 18

(continued)
molecule	Calb biofilm kill
COc1ccc(C2CC(c3ccccc3)=NN2c2ccc(S(N)(=O)=O)cc2)cc1 (centres undefined)	6
CNC(=S)NNC(=O)c1sc2cc(C(F)(F)F)cnc2c1-c1cccnc1	20
COc1ccc2c(c1)CCc1c(C(=O)NCC(C)C)noc1-2	12
CCOc1cc(NC(=S)NCc2ccco2)c(OCC)cc1NC(=O)c1ccco1	3
CCOCCCn1c(SCc2nc3sc(C(=O)O)c(C)c3c(=O)[nH]2)nnc1-c1ccc(Cl)cc1	35
O=C(NN1C(=O)c2ccccc2NC1c1ccoc1)c1ccc([N+](=O)[O-])cc1 (centres undefined)	12
CC(C)(C)C(=O)Nc1ccc(-c2nc3ccccc3c(=O)o2)cc1	15
S=C(NCc1ccccn1)Nc1ccccc1Cl	20
Cc1cc(Nc2ccccc2)nn1C(=O)c1ccc([N+](=O)[O-])cc1	12
CC(=O)c1c(C)[nH]c(C(=O)OCC(=O)c2c(N)n(C)c(=O)n(C)c2=O)c1C	7
O=C(Nc1ccc(C(F)(F)F)cc1)c1csc(-c2ccncc2)n1	13
Cc1cc(NC(=O)c2cc([N+](=O)[O-])cc([N+](=O)[O-])c2)no1	15
O=C(CCN1C(=O)c2ccccc2C1=O)CN1CCOCC1	9
C/C(=N/NC(=O)c1ccc2nc[nH]c2c1)c1cccs1	13
CCOc1ccc(S(=O)(=O)N(C)c2ccc(OCC(=O)NC3=NCCS3)cc2)cc1	10
O=C(NC1CCSC1=O)C1CCCCC1 (centres undefined)	-1
Cc1nc2oc3ccc(F)cc3c(=O)c2cc1C(=O)NC(C)(C)C	18
O=C(NC(=S)Nc1cc(-c2nc3ccccc3[nH]2)ccc1Cl)c1ccc2c(c1)OCO2	8
Cc1ccc(-c2csc3ncnc(Cl)c23)cc1	9
O=C1CC(N2CCOCC2)=NN1c1ccc([N+](=O)[O-])cc1	24
CC(=O)Nc1ccc(S(=O)(=O)N2CCSC2c2ccco2)cc1 (centres undefined)	12
COc1ccc(C(C#N)N2CCC(c3ccccc3)=N2)cc1OC (centres undefined)	24
CCOC1=NS(=O)(=O)c2ccccc21	10
O=C(Nc1ccccc1)Nc1nnc(SCc2ccc(Cl)cc2)s1	22
CCN(CC)CCN1c2ccccc2Sc2ccc3ccccc3c21	12
CC(C)NC(=O)NNC(=O)c1nn(-c2ccc(F)cc2)ccc1=O	6
CC(=O)/C(=N\Nc1ccccc1Cl)Sc1cccc2cccnc12	7
COc1ccc(C(N)=S)c(OC)c1	-8
COc1ccc(C2c3c(ccc4ccccc34)Oc3ncn4nc(-c5ccco5)nc4c32)cc1OC (centres undefined)	4
CCOC(=O)C(=CNc1cc(Cl)c(-c2ccco2)c(Cl)c1)C(=O)OCC	6
COc1ccc(C(=O)N/N=C/c2ccc(OC)c(CN3CCN(c4ccc(F)cc4)CC3)c2)cc1	-10
CCc1ccc(/C=N/NC(=O)c2c[nH]c3ccccc23)s1	6
Cc1nnn(C23CC4CC(CC(C(=O)NN)(C4)C2)C3)n1	21
N#Cc1nc(-c2ccc(F)cc2)oc1NCCCn1ccnc1	1
CCc1ccc(Nc2nnc(SCC(=O)Nc3cccnc3Cl)s2)cc1	28
Cc1ccccc1-c1cccc([C@@H]2C[C@H]3CN(Cc4cccnc4)C(=O)[C@]34CCCN24)c1	15
COc1cccc(-c2nn(-c3ccccc3)cc2CN2CCCO2)c1	12
NC(=O)N(CCC(=O)O)c1ccccc1	17
CN(C)Cc1c(-c2ccc(Cl)cc2)nc2ccc(Cl)cn12	-7
Cc1csc(SCC(=O)Nc2sccc2C(N)=O)n1	6
CCOc1ccc(N/C(=N/c2nc(C)cc(C)n2)NC(C)=O)cc1	18
CCc1ccccc1N1C(=O)c2ccccc2S1(=O)=O	8
COCC(=O)NC1CCCCCC1	27
COc1ccccc1-n1c(SCC(=O)N2CCCC2)nnc1-c1ccccc1	15
CCOC(=O)N1CCN(C(=O)COc2cccc3c2CCN(CC)C3=O)CC1	-3
CCCCn1c(N)c(N(Cc2ccccc2OC)C(=O)COc2ccccc2C#N)c(=O)[nH]c1=O	7
CCC(CC)C(=O)Nc1ccc([N+](=O)[O-])cn1	15
CC(Oc1ccccc1)C(=O)N/N=C/c1ccccn1 (centres undefined)	13
Cn1c(SCC(=O)NNC(=O)Cc2ccccc2)nnc1-c1ccccc1	17
Cc1[nH]c(=O)[nH]c(=O)c1S(=O)(=O)N1CCC(C(=O)N2CCN(c3cccc(C(F)(F)F)c3)CC2)CC1	11
Cc1ccc(CC2CC(=O)N(c3nc4ccccc4s3)C2=O)cc1 (centres undefined)	9
COC(=O)C/C(N)=C(\C#N)C(=O)OC	16
